D2 potentiator = potentiates the human D2 dopamine receptor allosterically; 360,000 compounds, 0.23% hits; P14416; potentiation, % (test concentration not listed); AID 624464; DiscoveRx D2 beta-arrestin cells, luminescence, 90 min; 100% = 57 uM dopamine signal; active = potentiation of 50% or more; inconclusive = 30% to 50%; inactive = 30% or less;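 further: compound concentration not given in the record; tested on top of an EC20 dose of dopamine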
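PathHunter D2 cells, attached overnight at 37 deg C, received compound in DMSO plus dopamine at EC20 (50 nM final) for 90 min at 37 deg C. Beta-arrestin recruitment was read as luminescence after 1 h with detection reagent at ambient temperature.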
gsp antagonist = antagonists of gsp mutant (McCune-Albright syndrome) | 340,000 compounds, 0.4% hits | AID 624288 | Potency, µM (top dose mostly 76.9 µM), inactives show at the highest dose activity change, negative = inhibition, most hits filed as inhibitors | gsp-mutant cells, cAMP HTRF, 30 min; control for the full effect not named in the record; active = falling curve of any shape with a large fitted effect; inconclusive = falling curve, mostly with a smaller effect; inactive = flat or rising curve; cell line not stated here;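 further: intracellular cAMP measured with PDE inhibitor Ro 20-1724 present during compound exposure; potency means the concentration at half of the fitted maximal effect; on the % scale 0 is the no-effect control and ±100 the full control effect; nearly all actives have a fitted effect of over 65% in size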
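HTRF cAMP read-out (cAMP-d2 plus anti-cAMP antibody-K in lysis buffer, 30 min RT). Before lysis, cells are exposed to compounds with […] for 30 min at 37C in DPBS containing Ca/Mg, BSA and Tween 20.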
Sfp PPTase inh = Sfp phosphopantetheinyl transferase inhibition; AID 1490; Q9F4F7; Potency, µM, for inactives: max response, negative = inhibition, actives largely listed as inhibitors; Biochemical Sfp PPTase activity, qHTS; 310,000 compounds, 3.5% hits; active means well fitted inhibition curve with a large enough effect; inconclusive means small, poorly fitted or top-dose-only effect, or another doubt; inactive means no such curve, though single readings can be large or run the other way;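 further: the enzyme is Sfp with the accession as filed and its product quenches rhodamine fluorescence; potency means the concentration at half of the fitted maximal effect; 0% = enzyme reaction without inhibitor and -100% = no enzyme wells; top concentration of the series not given in the record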
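Buffer: 50 mM Hepes-Na pH 7.6, 10 mM MgCl2, 0.01% Nonidet P-40, 0.01% BSA. Enzyme 15 nM, pre-exposed to compound 15 min; substrates then added and fluorescence change tracked over 30 min.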
Menin-MLL FL inh = displaces fluorescein MLL peptide from human menin; Fluorescence polarization, fluorescein-MLL peptide displacement from menin; FP activity change, % at 61.4 µM; 290,000 tested, under 10 active; inconclusive = falling polarisation curve, or a change in total fluorescence; inactive = total fluorescence flat and polarisation flat or rising; no compound was filed as active; the % refers to the polarisation; negative = inhibition;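 further: % of control where 0% means no effect; inhibitors lower the polarisation; unlabelled MLL peptide was the positive control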
gsp ag = agonists of gsp mutant (McCune-Albright syndrome) | gsp mutant cells, cAMP HTRF, 30 min; control for the full effect not named in the record | Potency, µM (titrated, usually from 76.9 µM), for the others: at the highest dose activation (cAMP increase), usual class: activators | 340,000 compounds, 0.13% hits; active = well fitted activation curve with a large enough effect; inconclusive = small, poorly fitted or top-dose-only effect, or another doubt; inactive = no such curve, though single readings can be large or run the other way; cell line not stated here;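 further: phosphodiesterase inhibitor Ro 20-1724 added with compounds to block cAMP breakdown; potency means the concentration at half of the fitted maximal effect; nearly all actives have a fitted effect of over 60% in size; about a fifth of the inactives were tested at one dose only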
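Cells stably selected in G418 were plated at 2000/well, grown 16-24 hr, then given compounds in DMSO with the PDE inhibitor […] (300 uM solution added) for 30 min at 37C; cAMP was read by HTRF.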
ClpP mod = qHTS Assay for Activators of ClpP. AID 651965, 2013. Potency, µM (doses to about 57.5 µM), inactives show top-dose activity change, negative = active. purified B. subtilis ClpP, FRET peptide cleavage, 20 min. ATP-dependent Clp protease proteolytic subunit (Bacillus subtilis (strain 168)), P80244. 340,000 compounds, 1.9% hits; active = well fitted falling curve with a large enough effect; inconclusive = small, poorly fitted or top-dose-only effect; inactive = no such curve, though single readings can be large or run the other way; further: potency means the concentration at half of the fitted maximal effect; the source files actives as falling curves though it sought activators and does not explain the sign; nearly all actives have a fitted effect of over 65% in size; many hits overshoot -100%
Target sequence (P80244 whole entry, looked up): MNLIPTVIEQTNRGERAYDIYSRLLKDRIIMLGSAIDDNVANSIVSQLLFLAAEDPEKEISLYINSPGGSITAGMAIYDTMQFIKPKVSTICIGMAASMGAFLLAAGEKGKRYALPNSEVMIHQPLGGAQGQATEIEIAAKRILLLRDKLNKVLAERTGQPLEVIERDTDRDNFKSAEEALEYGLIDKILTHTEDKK
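ClpP 10 microg/mL final, pH 8 Tris/KCl buffer with BSA, glycerol, Tween-20; compound pinned in; FRET-FV substrate; RT 20 min; Ex320/Em430; ΔFRET vs ADEP 5.8 microM, DMSO, no enzyme.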
TRPV1 PAM = human TRPV1 potentiation | TRPV1-expressing cells, Fluo-8 calcium influx, capsaicin EC20 potentiation; host cell line not named in the record; control for the full effect not named in the record | potentiation, % at 8.33 µM | 320,000 compounds, 0.02% hits | Q8NER1; active means potentiation above 80%; inconclusive means 30% to 80%; inactive means below 30%; further: 0% is about no effect
Target sequence (Q8NER1 whole entry, looked up): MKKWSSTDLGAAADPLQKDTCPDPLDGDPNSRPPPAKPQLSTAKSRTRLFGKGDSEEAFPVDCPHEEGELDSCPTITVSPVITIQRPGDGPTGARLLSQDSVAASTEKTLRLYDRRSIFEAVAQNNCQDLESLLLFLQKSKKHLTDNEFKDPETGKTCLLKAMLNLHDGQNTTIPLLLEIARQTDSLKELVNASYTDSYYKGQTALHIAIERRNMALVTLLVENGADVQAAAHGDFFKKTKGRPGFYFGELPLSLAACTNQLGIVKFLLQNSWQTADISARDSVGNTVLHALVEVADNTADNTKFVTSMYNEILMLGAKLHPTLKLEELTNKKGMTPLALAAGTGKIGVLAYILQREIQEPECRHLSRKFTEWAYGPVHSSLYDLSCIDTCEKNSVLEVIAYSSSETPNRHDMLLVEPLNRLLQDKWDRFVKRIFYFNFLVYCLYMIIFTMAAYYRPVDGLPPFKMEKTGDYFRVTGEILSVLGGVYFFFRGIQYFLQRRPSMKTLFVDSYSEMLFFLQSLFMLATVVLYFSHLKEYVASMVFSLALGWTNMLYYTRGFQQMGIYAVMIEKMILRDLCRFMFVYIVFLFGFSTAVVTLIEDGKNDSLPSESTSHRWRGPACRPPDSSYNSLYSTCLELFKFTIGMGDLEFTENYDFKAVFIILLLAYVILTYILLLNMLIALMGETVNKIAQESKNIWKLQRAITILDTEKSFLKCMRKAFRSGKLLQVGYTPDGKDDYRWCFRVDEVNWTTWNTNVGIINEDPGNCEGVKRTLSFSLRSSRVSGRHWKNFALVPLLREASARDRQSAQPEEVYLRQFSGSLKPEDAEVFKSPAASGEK
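TRPV1-expressing cells were cultured overnight at 35.5C and loaded with Fluo-8 calcium dye for 40 to 90 min at room temperature. After a 10 s baseline, compound was added and calcium influx was read kinetically for 3 min (ex 480/em 520 nm).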
* = called active by the depositor; & = joins results of further samples; [ ] = another dose, or the depositor's remark.

For COC(=O)c1cc2cc(OC)ccc2n1C the results were D2 potentiator -4, gsp antagonist 6%, ClpP mod -30% and TRPV1 PAM 27.
`CCN(CC(=O)Nc1c(C(=O)OC)[nH]c2ccccc12)c1ccc2c(c1)OCO2` gave D2 potentiator 11, gsp antagonist -27%, Sfp PPTase inh 14%, Menin-MLL FL inh -0.6, gsp ag -29%, ClpP mod -1.3% and TRPV1 PAM -17.
CN(C)c1ccc(NS(=O)(=O)c2cccc(Cl)c2)cc1 was read as D2 potentiator 26, gsp antagonist -2%, Sfp PPTase inh -7%, Menin-MLL FL inh 4.5, gsp ag 9%, ClpP mod -2.6% and TRPV1 PAM -9.
`Cc1ccsc1/C=N/N=C1\C(=O)Nc2ccccc21` gave D2 potentiator -1, gsp antagonist -3%, Sfp PPTase inh 3%, Menin-MLL FL inh 3.6, gsp ag 15%, ClpP mod -1.2% and TRPV1 PAM 28.
For O=[N+]([O-])c1ccc(NN=Cc2ccc3c(c2)OCO3)nc1 the results were D2 potentiator -26, gsp antagonist inconclusive, gsp ag -18% and ClpP mod -1.4%.
`O=C(COC(=O)c1cccc(C(=O)OCC(=O)c2ccc(Br)cc2)n1)c1ccc(Br)cc1` gave D2 potentiator -10, gsp antagonist -4%, Sfp PPTase inh -8%, Menin-MLL FL inh 0.0, gsp ag -26%, ClpP mod -0.4% and TRPV1 PAM -9.
COc1cc2c(cc1OC)C(c1ccccc1)NC(C)(C)C2 (stereo not given) was read as D2 potentiator -3, gsp antagonist 9%, Sfp PPTase inh 10%, Menin-MLL FL inh -8.5, gsp ag inconclusive, ClpP mod -1.5% and TRPV1 PAM -2.
Cc1ccn2c(Nc3ccccc3C)c(-c3ccncc3)nc2c1 was read as D2 potentiator 8, gsp antagonist 3%, Sfp PPTase inh -7%, Menin-MLL FL inh -2.1, gsp ag -57%[inhibitor], ClpP mod -8.9%&-5.3% and TRPV1 PAM 6.
O=C(c1sc2ccccc2c1Cl)N1CCN(c2ccccn2)CC1 was read as D2 potentiator 1, gsp antagonist -9%, Sfp PPTase inh -3%, Menin-MLL FL inh -0.5, gsp ag 22%, ClpP mod -1.0% and TRPV1 PAM -9.
Screening COc1ccc(NS(=O)(=O)c2cccc(C(=O)N/N=C(\C)c3cccnc3)c2)cc1 returned D2 potentiator -5, gsp antagonist 31%, gsp ag 8%[15.4 µM], ClpP mod 0.1% and TRPV1 PAM -2.
CC(Oc1ccc2c3c(c(=O)oc2c1)CCC3)C(=O)NCCN1CCOCC1 (stereo not given) was read as D2 potentiator -8, gsp antagonist 4%, Sfp PPTase inh 17%, Menin-MLL FL inh 1.1, gsp ag 26%, ClpP mod 3.7% and TRPV1 PAM -5.
O=C(Nc1ccc(Cc2ccncc2)cc1)C1CCC(N2C(=O)C3C4C=CC(C4)C3C2=O)CC1 (stereo not given) was read as D2 potentiator 3, gsp antagonist inconclusive, Sfp PPTase inh 17%, Menin-MLL FL inh -6.2, gsp ag -4%, ClpP mod -0.4% and TRPV1 PAM -17.
COc1ccc(COc2ccccc2C(=O)NCc2ccccc2)cc1F was read as D2 potentiator -9, gsp antagonist 28µM*, Sfp PPTase inh -2%, Menin-MLL FL inh 6.9, gsp ag -29%, ClpP mod -1.1% and TRPV1 PAM -12.
Screening Cc1ccc(NC(=O)COC(=O)c2ccc(NC(=O)CC#N)cc2)cc1S(=O)(=O)N1CCOCC1 returned D2 potentiator -4, gsp antagonist -2% and gsp ag -18%.
`Cc1cc2c(cc1C)NC(c1ccccn1)C1=C(CC(C)(C)CC1=O)N2` (stereo not given) gave D2 potentiator -13, gsp antagonist -1%, Sfp PPTase inh -18%, Menin-MLL FL inh 0.0, gsp ag inconclusive, ClpP mod inconclusive and TRPV1 PAM inconclusive.
COc1ccccc1-c1c(C#N)c(N)nc2c1CCc1ccccc1-2 was read as D2 potentiator -30, gsp antagonist 4%, Sfp PPTase inh -9%, Menin-MLL FL inh 1.9, gsp ag -2%, ClpP mod 1.8µM* and TRPV1 PAM -9.
`COC(=O)c1cnn(-c2ccccc2)c1N` gave D2 potentiator 0, gsp antagonist 8%, Sfp PPTase inh 19%, Menin-MLL FL inh 3.8, gsp ag -38%[inhibitor], ClpP mod -1.4% and TRPV1 PAM -6.
CCN1C(=S)N[C@@H](c2ccccc2)C(C(=O)OC)=C1C was read as D2 potentiator -2, gsp antagonist 5%, Sfp PPTase inh 11%&5%, Menin-MLL FL inh -7.9&-0.3, ClpP mod 1.3% and TRPV1 PAM inconclusive.
Cc1ccc(S(=O)(=O)c2ccc(Cl)cc2)cc1S(=O)(=O)NC(C(=O)O)C(C)C (stereo not given) was read as D2 potentiator -13, gsp antagonist 10%, Sfp PPTase inh 21%, Menin-MLL FL inh -3.1, gsp ag -22%, ClpP mod -1.9% and TRPV1 PAM 11.
O=C(CN1C(=O)NC2(CCCCC2)C1=O)Nc1ccc2c(c1)CCC2 was read as D2 potentiator -13, gsp antagonist 2%, Sfp PPTase inh 17%, Menin-MLL FL inh -1.5, gsp ag 13%, ClpP mod 0.4% and TRPV1 PAM -3.
For CCOC(=O)c1c(C)[nH]c(C)c1C(=O)COC(=O)c1cccnc1Cl the results were D2 potentiator -2, gsp antagonist -2%, gsp ag 9%[15.4 µM] and ClpP mod 0.5%.
For NC(=O)c1cc(-c2csc(-c3cccnc3)n2)ccc1O the results were D2 potentiator -6, gsp antagonist -13%, Sfp PPTase inh inconclusive, Menin-MLL FL inh 2.0, gsp ag -26% and TRPV1 PAM 27.
Screening Cc1ccc(C)c(N2CC(C(=O)Nc3nccs3)CC2=O)c1 (stereo not given) returned D2 potentiator 0, gsp antagonist 6%, Sfp PPTase inh -6%, Menin-MLL FL inh -3.5, gsp ag 1% and TRPV1 PAM 16.
Screening CC(C)n1ncc2c(C(=O)Nc3ccc(S(N)(=O)=O)cc3)cc(C3CC3)nc21 returned D2 potentiator -3, gsp antagonist -17%, gsp ag 9%, ClpP mod 4.3% and TRPV1 PAM -6.
Screening Cc1ccc(CCNC(=O)C2CCN(S(=O)(=O)c3ccc4c(c3)CCC(=O)N4)CC2)cc1 returned D2 potentiator -3, gsp antagonist 9%, Sfp PPTase inh -6%, Menin-MLL FL inh -1.7, gsp ag -24%, ClpP mod 0.9% and TRPV1 PAM -6.
`Nc1cccc(-c2nc3ccccc3s2)c1` gave D2 potentiator 10, gsp antagonist 2%, Sfp PPTase inh 7%, Menin-MLL FL inh 0.5, gsp ag 1%, ClpP mod inconclusive and TRPV1 PAM 10.
Screening Cc1ccc(Cn2ncc3c(NCCN(C)C)ncnc32)cc1 returned D2 potentiator -12, gsp antagonist 12%, Sfp PPTase inh 9%, Menin-MLL FL inh -0.5, gsp ag 16%, ClpP mod 0.2% and TRPV1 PAM 11.
`Cc1ccc(OCC(=O)NCC2CCCO2)c(C)c1` (stereo not given) gave D2 potentiator -6, gsp antagonist -4%, Sfp PPTase inh 5%, Menin-MLL FL inh 0.4, gsp ag -5%[15.4 µM], ClpP mod -7.9% and TRPV1 PAM 23.
Screening Cc1nc(NC(=S)NC(=O)c2ccccc2)sc1C(=O)N(C)C returned D2 potentiator -15, gsp antagonist -8%, Sfp PPTase inh inconclusive, Menin-MLL FL inh 2.1, gsp ag -36%[inhibitor], ClpP mod 0.8% and TRPV1 PAM 3.
For COC(=O)c1ccc(NC(=S)N2CCN(CCO)CC2)cc1 the results were D2 potentiator -4, gsp antagonist -10%, Sfp PPTase inh -7%, Menin-MLL FL inh 2.7, gsp ag -13%, ClpP mod -2.7% and TRPV1 PAM -17.
`C/C(=N/NS(=O)(=O)c1cccc([N+](=O)[O-])c1)c1c[nH]c2ccccc12` gave D2 potentiator -7, gsp antagonist 3%, Sfp PPTase inh -26%, gsp ag 20%[15.4 µM], ClpP mod -1.2% and TRPV1 PAM -12.
For O=S(=O)(c1ccccc1)[C@@]1(c2ccc(Br)cc2)C[C@@H]2ON=C(c3ccccc3)[C@@H]2C1 the results were D2 potentiator -2, gsp antagonist 11µM*, ClpP mod -0.8% and TRPV1 PAM 27.
Screening O=C(Nc1ccccc1N1CCCCC1)c1ncoc1-c1cccc(F)c1 returned D2 potentiator -11, gsp antagonist 1%, Sfp PPTase inh -7%, Menin-MLL FL inh -3.4, gsp ag -6%, ClpP mod -26% and TRPV1 PAM 9.
For CC(=O)N(Cc1ccc(F)cc1)c1cccc(C)c1C the results were D2 potentiator 0, gsp antagonist -3%, Sfp PPTase inh -18%, Menin-MLL FL inh -0.8, gsp ag -11%[15.4 µM] and TRPV1 PAM -18.
For CN1C(=O)c2ccccc2C(C(=O)NCC2CCCO2)C1c1c[nH]c2ccccc12 (stereo not given) the results were D2 potentiator 6, gsp antagonist 4%, Sfp PPTase inh 2%, Menin-MLL FL inh 1.0, gsp ag 0%, ClpP mod 1.7% and TRPV1 PAM -5.
`O=C(CNC(=O)c1nc[nH]c1C(=O)NCc1ccccc1)OCc1ccccc1` gave D2 potentiator 16, gsp antagonist -12%, Sfp PPTase inh 12%, Menin-MLL FL inh 2.3, gsp ag -23%, ClpP mod -0.1% and TRPV1 PAM inconclusive.
`COc1cc(C(=O)OCc2cc3ccccc3[nH]c2=O)cc(OC)c1OC` gave D2 potentiator 3, gsp antagonist 25%, Sfp PPTase inh -11%, Menin-MLL FL inh -0.4, gsp ag inconclusive, ClpP mod -8.4% and TRPV1 PAM 3.
CCCCc1nnc(NC(=O)C2CC(=O)N(Cc3ccccc3)C2)s1 (stereo not given) was read as D2 potentiator 3, gsp antagonist -10%, Sfp PPTase inh 4%, gsp ag -34%[inhibitor], ClpP mod -2.3% and TRPV1 PAM 15.
For Cc1noc(NC(=O)c2c(-c3c(Cl)cccc3Cl)noc2C)c1[N+](=O)[O-] the results were D2 potentiator 4, gsp antagonist -6%, Sfp PPTase inh 21%, Menin-MLL FL inh 1.0, gsp ag -12%[15.4 µM], ClpP mod -7.4% and TRPV1 PAM 4.
For CCC(=O)NNc1nc2c(Cl)cccc2s1 the results were D2 potentiator 4, gsp antagonist 6%, Sfp PPTase inh 6%, Menin-MLL FL inh -0.4, gsp ag 22%, ClpP mod 0.8% and TRPV1 PAM 11.
For COc1ccccc1CCNC(=O)C1CCN(c2nnc(C)c3c(C)n(-c4ccc(C)cc4)nc23)CC1 the results were D2 potentiator 1, gsp antagonist 1%, Sfp PPTase inh inconclusive, Menin-MLL FL inh 29, gsp ag -27%, ClpP mod 0.7% and TRPV1 PAM -8.

Source: PubChem (National Center for Advancing Translational Sciences (NCATS))
